High-throughput results: PubChem BioAssay, National Center for Advancing Translational Sciences (NCATS)
D2 potentiator = Beta-Arrestin HTS for Positive Allosteric Modulators of the Human D2 Dopamine Receptor: Potentiators; D(2) dopamine receptor (Homo sapiens), P14416; DiscoveRx D2 beta-arrestin cells, luminescence, 90 min; 100% = 57 uM dopamine signal; potentiation, % (concentration not given with the values); actives 0.23% (n = 360,000); active = potentiation of 50% or more; inconclusive = 30% to 50%; inactive = 30% or less;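 further: compound concentration not given in the record; tested on top of an EC20 dose of dopamine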
Target sequence (P14416 whole entry, looked up): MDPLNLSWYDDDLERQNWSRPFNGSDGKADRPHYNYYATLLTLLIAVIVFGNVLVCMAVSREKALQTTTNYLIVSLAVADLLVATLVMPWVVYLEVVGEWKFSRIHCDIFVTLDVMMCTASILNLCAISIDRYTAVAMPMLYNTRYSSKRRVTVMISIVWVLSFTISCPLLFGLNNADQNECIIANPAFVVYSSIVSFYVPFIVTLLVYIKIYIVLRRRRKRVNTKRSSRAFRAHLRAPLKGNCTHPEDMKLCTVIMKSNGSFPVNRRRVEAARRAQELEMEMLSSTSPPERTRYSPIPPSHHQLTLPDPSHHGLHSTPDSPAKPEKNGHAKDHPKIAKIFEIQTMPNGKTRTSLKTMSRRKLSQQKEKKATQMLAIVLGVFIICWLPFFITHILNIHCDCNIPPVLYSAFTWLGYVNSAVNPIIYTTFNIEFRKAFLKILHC
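PathHunter beta-arrestin assay in DiscoveRx D2 cells. Compounds were added with an EC20 of dopamine (50 nM final) for 90 min at 37 deg C. Luminescence was read 1 h after detection reagent, with 57 uM dopamine as the EC100 control.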
Six1-Eya2 blk = qHTS Assay for Inhibitors of the Six1/Eya2 Interaction | Homeobox protein SIX1 (Homo sapiens) + Protein phosphatase EYA2 (Homo sapiens), … | activity change, % (test concentration not listed) | AID 651725, 2012 | actives 0.56% (n = 360,000) | AlphaScreen GST-Six1/His-Eya2 binding, biochemical; hits give low values; control for the full effect not named in the record; in the data active = activity change below about -65%; inconclusive = about -30% to -65%; inactive = above about -30%; further: on the % scale 0 is the no-effect control and ±100 the full control effect; compound concentration not given in the record
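Compounds are tested against tagged Six1 and Eya2 proteins bridged by glutathione donor and nickel acceptor beads; after a one-hour incubation at 37 °C without light, AlphaScreen emission is recorded.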
TRPML1 blocker = qHTS for Inhibitors of the Human Mucolipin Transient Receptor Potential 1 (TRPML1); TRPML1-inducible cells, Ca2+ dye fluorescence, FDSS; hits give low values; inhibition of EC80 agonist-evoked calcium signal; activity change, negative = inhibition, % (test concentration not listed); actives 0.02% (n = 390,000); AID 624415, 2012; in the data active means activity change below about -50%; inconclusive means about -30% to -50%; inactive means above about -30%;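 further: stimulus is agonist 54-4 at its EC80 concentration; on the % scale 0 is the no-effect control and ±100 the full control effect; compound concentration not given in the record; the text of the record puts the active cut at -80%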
Target sequence (Q9GZU1 whole entry, looked up): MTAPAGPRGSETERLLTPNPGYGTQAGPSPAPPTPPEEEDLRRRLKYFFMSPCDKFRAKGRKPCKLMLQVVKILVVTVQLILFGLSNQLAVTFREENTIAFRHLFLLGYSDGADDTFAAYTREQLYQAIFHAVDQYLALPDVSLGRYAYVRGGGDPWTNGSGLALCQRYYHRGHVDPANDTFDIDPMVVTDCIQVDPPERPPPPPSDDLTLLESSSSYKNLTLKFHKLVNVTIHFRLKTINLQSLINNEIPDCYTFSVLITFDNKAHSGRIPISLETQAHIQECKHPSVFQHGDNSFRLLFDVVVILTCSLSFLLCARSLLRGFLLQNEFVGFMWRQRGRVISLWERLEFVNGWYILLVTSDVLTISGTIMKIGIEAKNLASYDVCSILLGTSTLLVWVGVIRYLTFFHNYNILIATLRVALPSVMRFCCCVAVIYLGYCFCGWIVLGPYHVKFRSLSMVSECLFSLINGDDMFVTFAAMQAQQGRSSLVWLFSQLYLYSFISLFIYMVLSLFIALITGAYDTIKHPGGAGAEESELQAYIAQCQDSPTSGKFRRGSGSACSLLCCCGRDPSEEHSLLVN
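Calcium fluorescence in TRPML1-DL cells induced overnight with Tet: a 110 s read after compound pin addition, then a 110 s antagonist read after challenge with 54-4 at 4 uM final (EC80).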
PINK1 modulator = A Quantitative High throughput Screen to Identify Chemical Modulators of PINK1 Expression; PINK1 immunofluorescence, high-content cytometry, 24 h; Potency, µM (highest dose often 76.6 µM), without a hit: top-dose activation (PINK1 increase), actives largely listed as activators; actives 0.2% (n = 410,000); AID 624263, 2012; active = well fitted activation curve with a large enough effect; inconclusive = small, poorly fitted or top-dose-only effect; inactive = flat fitted curve, though single readings scatter; cell line not stated here;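 further: potency means the concentration at half of the fitted maximal effect; % of control where 0% means no effect; nearly all actives have a fitted effect of over 65% in size; a mitochondrial uncoupler was the plate control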
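PINK1 protein, normally rapidly degraded, was detected by immunofluorescence after 24 hour compound treatment of a stable cell line. Titration data (5 concentrations) came from laser-scanning cytometry, with CCCP-treated wells as controls.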
TRPML1 ag = qHTS for Agonists of the Human Mucolipin Transient Receptor Potential 1 (TRPML1); Mucolipin-1 (Homo sapiens), Q9GZU1; TRPML1-expressing cells, Ca2+ dye fluorescence, FDSS; host cell line not named in the record; reference of the full effect not given here; activation, % (concentration not given with the values); actives 0.12% (n = 410,000); AID 624414, 2012; in the data active = activation above about 50%; inconclusive = about 30% to 50%; inactive = below about 30%; further: 0% is about no effect; the text of the record puts the active cut at 80%
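TRPML1-DL cells, Tet-induced overnight (~16 h, 37 degrees C), loaded 45-90 min at room temperature with Ca8 no-wash calcium dye plus quencher. FDSS fluorescence: 10 s baseline, compound pin-transfer, 110 s agonist read, then EC80 54-4 (4uM final) and 110 s antagonist read.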
D2 agonist = Beta-Arrestin HTS for Positive Allosteric Modulators of the Human D2 Dopamine Receptor: Agonists | D(2) dopamine receptor (Homo sapiens), P14416 | DiscoveRx PathHunter D2 beta-arrestin, luminescence, 90 min; 100% = 57 uM dopamine signal | activation, % (test concentration not listed) | actives 0.084% (n = 360,000); in the data active = activation above about 40%; inconclusive = about 15% to 40%; inactive = below about 15%; further: compound concentration not given in the record; the text of the record calls up to 30% inactive
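DiscoveRx PathHunter D2 beta-arrestin cells (2,100/well) attached overnight, then compound-stimulated 90 min at 37 C in HBSS/10 mM HEPES/0.1% Tween-20 buffer; beta-galactosidase complementation read by luminescence after 1 h at ambient temperature. Dopamine 57 uM final (EC100) as control.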
Starred values were filed as active, the others as inactive; ? = inconclusive; / = not tested or not shown; [ ] = another dose, or the depositor's remark.

Below each compound: D2 potentiator	Six1-Eya2 blk	TRPML1 blocker	PINK1 modulator	TRPML1 ag	D2 agonist
CCCn1c(SC(C)C(=O)O)nc2ccccc21 (configuration not stated)
 : -4.9	10.5	-3.9	-3.1%	-0.6	-2.8
N#Cc1ccsc1NC(=O)CSc1nnc(-c2ccccc2)o1
 : 2.4	-6.8	5.9	0.0%	0.6	-1.4
COC(=O)c1c(NC(=O)c2nc3ccccc3s2)sc2c1CC(C)(C)NC2(C)C
 : -6.9	12.3	17.2	5.8%	-0.3	-5.7
Cc1ccc(S(=O)(=O)N(C)Cc2nc(-c3ccccc3)oc2C)cc1
 : /	/	11.5	0.1%	2.4	/
Cc1nc(SCC(=O)N2CCN(C(=O)c3ccco3)CC2)c2c(C)c(C)sc2n1
 : -11.5	1.8	1.2	-0.3%	-1.1	-1.4
CC1CCCC(C)N1C(=O)c1cc(-c2ccc(Cl)c(Cl)c2)on1 (configuration not stated)
 : -9.5	32.5	66.2	16.4%[38.3 µM]	1.1	-2.7
CN1CCN(S(=O)(=O)c2ccc([N+](=O)[O-])cc2)CC1
 : 0.1	9.0	-18.4	-0.6%	0.3	-0.1
CCCNC(=O)Cc1cc(=O)[nH]c(=O)[nH]1
 : -3.4	1.0	-15.9	2.7%	0.0	-1.3
Cc1c(C(=O)N2CCN(S(=O)(=O)c3cccs3)CC2)oc2ccc(F)cc12
 : -3.7	-4.5	-1.7	2.4%	0.2	0.2
CCOC(=O)C1CCN(C(=O)Cn2nc(C)n3c(cc4c(OC)cccc43)c2=O)CC1
 : /	/	-20.0	-0.6%	-0.2	/
O=C(COc1ccc(Br)cc1)N/N=C1/SCC(=O)N1Cc1ccccc1
 : -9.8	5.4	11.3	4.0%	-0.2	-1.4
CCN(C(=O)CN1CCN(S(=O)(=O)c2cc(Cl)ccc2Cl)CC1)c1c(N)n(Cc2ccccc2)c(=O)[nH]c1=O
 : 6.8	19.2	-4.3	0.6%	-0.2	0.2
Cc1ccc(S(=O)(=O)/N=C2\C=C(Nc3ccc(O)cc3)C(=O)c3ccccc32)cc1
 : -8.8	-77.5*	16.2	-1.5%	6.9	4.4
COC(=O)C1(Cc2cc(-c3ccccc3)no2)CCN(C(=O)OC(C)(C)C)CC1
 : -11.2	3.6	4.0	0.5%	-0.8	0.4
Cc1c(NC(=O)c2cc([N+](=O)[O-])ccc2N2CCOCC2)cccc1-c1nc2ccccc2o1
 : /	/	1.3	7.1%	-0.8	/
Cc1ccccc1Cn1c(SCc2ccc(C(=O)NCCc3ccccc3)cc2)nc2ccncc21
 : /	/	5.5	2.0%	0.2	/
COc1ccccc1C1CC(=O)NC(SCC(=O)Nc2ccccc2)=C1C#N (configuration not stated)
 : -3.5	3.4	-10.9	6.3%	-0.5	0.1
O=C(Nc1ccc(N2CCCCC2)c(Cl)c1)c1cccnc1
 : 5.2	0.5	-19.5	-0.5%	0.8	-1.0
CCOn1c(=O)c(-c2cccc(Br)c2)[n+]([O-])c2ccccc21
 : -2.4	9.3	15.8	5.3%	1.9	-0.3
O=C(c1ccco1)N1CCN(CCOc2ccc(F)cc2)CC1
 : 3.3	0.1	-1.5	0.1%	-0.6	10.0
Cc1ccc(NC(=O)Cn2nnc(C(=O)NCc3ccco3)c2N)c(C)c1
 : -13.6	-0.4	11.7	2.5%	0.5	-3.3
CCOc1ccc(CN2CCN(Cc3cn(CC)nc3C)CC2CCO)cc1 (configuration not stated)
 : -1.3	-3.5	-5.9	2.1%	-0.9	1.5
Brc1ccc(Oc2ncc(CN3CCOCC3)s2)cc1
 : -25.9	-2.5	7.3	/	0.0	-0.7
COc1ccc(NS(=O)(=O)c2cc(NC(=O)C3=NN(c4ccccc4)C(=O)CC3)ccc2OC)cc1
 : -3.1	-8.1	4.8	0.2%	1.7	7.5
Cc1ccccc1Cn1ccc(NC(=O)c2cc3ncc(Br)cn3n2)n1
 : -4.2	8.8	-1.3	3.6%	-0.5	-3.0
COc1ccc(NC(=O)Nc2ccc(F)cc2)c(C)c1
 : -10.6	1.2	0.8	3.2%	0.4	-3.3
CNC(=O)NC(=O)COC(=O)c1n[nH]c2ccccc12
 : 0.4	-1.7	-11.1	0.1%	-0.4	-1.5
CC(O)(Cc1cccnc1)c1cccs1 (configuration not stated)
 : 8.5	12.5	-0.7	-4.8%	0.1	-2.1
O=C(O)CCNc1ccc2c(c1)OCCO2
 : 1.6	-2.3	-1.4	-2.7%	1.0	0.3
CCn1cc2nc(SCc3cc(C)ccc3C)n(Cc3ccc(OC)cc3)c(=O)c2n1
 : /	/	44.7	4.0%	1.8	/
CCCNC(=O)C1(C)CCCN(Cc2ccc(-c3ccccc3)o2)C1 (configuration not stated)
 : -12.3	-6.3	51.4	4.0%	-0.1	-5.4
Cc1ccc([N+](=O)[O-])cc1S(=O)(=O)Nc1ccc(-c2ccc(N3CCOCC3)nn2)cc1
 : -8.3	-0.9	15.1	3.7%	0.0	-2.4
OCCN(CCO)c1ccc(C(c2ccccc2Cl)c2ccc(N(CCO)CCO)cc2Cl)c(Cl)c1
 : -2.2	-14.8	18.3	-2.1%	0.7	-0.4
CN1CCN(S(=O)(=O)c2cccc(C(=O)Nc3cc(C(N)=O)cc(C(N)=O)c3)c2)CC1
 : 2.1	-65.7*	-9.0	1.2%	-0.5	2.1
Cc1ccccc1NC(=O)NCc1ccc2c(c1)OCO2
 : -4.6	2.9	30.8	-1.2%	2.3	-3.1
O=C(CCN1C(=O)/C(=C\c2ccccc2Cl)SC1=S)N1CCN(c2ccccc2)CC1
 : 8.3	-0.8	-6.3	0.8%	0.0	-3.1
COc1cc(C(=O)N/N=C/c2ccc(OC(=O)c3cccc(C)c3)cc2)ccc1O
 : 0.9	-7.1	-2.7	-0.5%	1.1	1.8
O=C(c1cc(-c2cccc(O)c2)on1)N1CCCCC1
 : -2.0	5.4	15.3	1.8%	1.1	-7.1
COc1ccc(C(=O)NCC(=O)OCc2ccc(F)cc2)cc1
 : -2.6	4.7	18.3	0.7%	1.1	-0.5
Cc1cccc(OCc2nnc(SCC(=O)Nc3ccc(N4CCOCC4)cc3)o2)c1
 : -2.0	0.7	7.8	4.7%	0.0	-1.0

(cont.)
| SMILES | D2 potentiator | Six1-Eya2 blk | TRPML1 blocker | PINK1 modulator | TRPML1 ag | D2 agonist |
| --- | --- | --- | --- | --- | --- | --- |
| CCOc1ccc(N(CC(=O)Nc2cccc(F)c2)S(=O)(=O)c2c(C)noc2C)cc1 | 0.7 | 0.8 | 3.8 | 3.2% | 0.2 | -7.6 |
| COc1ccc(NC(=O)CCCCC(=O)Nc2ccc(OC)cc2)cc1 | -2.9 | 1.5 | 0.1 | 3.3% | 0.4 | 7.5 |
| COc1ccccc1C(OC(=O)c1cccs1)C(=O)NCc1ccco1 (configuration not stated) | -3.0 | -7.5 | 0.1 | -0.3% | -0.1 | -3.4 |
| COc1ccc(C2=C(C)C(=O)N(Cc3ccc(C(=O)NCc4cccc(C)c4)cc3)S2(=O)=O)cc1 | / | / | 5.0 | 0.4% | 4.6 | / |
| O=P(CCNCc1ccco1)(c1ccccc1)c1ccccc1 | -4.8 | 2.2 | 10.4 | 3.5% | 0.1 | -3.4 |
| O=C(Nc1ccncc1)c1cc(C2CCCCN2C(=O)CCCc2ccccc2)on1 (configuration not stated) | -3.2 | -7.8 | / | 2.0% | -1.0 | -3.5 |
| COC(=O)CCC[C@H]1CC2(C[C@H](CCCO[Si](C)(C)C(C)(C)C)N1C(=O)OC(C)(C)C)OCCO2 | -6.3 | 4.5 | -4.5 | ? | -0.2 | -0.3 |
| Cc1cccc(NC(=O)CNC(=O)c2ccco2)n1 | -18.8 | 5.7 | -4.3 | 2.2% | -0.7 | -4.7 |
| N#C/C(=C\c1ccc[nH]1)C(=O)NC1CC1 | -5.8 | 6.0 | 8.9 | / | -0.3 | -0.1 |
| c1ccc2nc3c(cc2c1)CCCCCC3 | -8.6 | 7.4 | 4.3 | 1.8% | -0.9 | -2.8 |
| COc1ccc(Cl)cc1C(=O)N(Cc1nc(-c2cccc(C)c2)no1)C(C)C | -4.7 | 9.7 | -3.9 | 11.7% | 1.4 | 8.5 |
| CCOc1ccc(NC(=O)CN(C)C(=O)C2CCCC2)cc1OCC | -2.9 | -4.1 | -4.9 | 2.3% | 0.2 | -5.8 |
| CCOC(=O)N1CCN(C(=O)CCN2C(=O)c3ccccc3S2(=O)=O)CC1 | 10.0 | 2.2 | -15.3 | 3.1% | 1.2 | 1.2 |
| CC(C)c1ccc(NC(=O)c2cn(C3CCCCC3)c(=O)c3c2c2ccccc2n3C)cc1 | / | / | 23.8 | 0.3% | -0.5 | / |
| COCCNC(=S)N(CCCN(C)C)Cc1cc2cc3c(cc2[nH]c1=O)OCCO3 | 0.1 | -2.5 | -6.9 | 2.5% | 0.5 | 0.5 |
| C[C@H](O)[C@@H]1CN2CCc3c([nH]c4ccc(-c5ccc6c(c5)OCO6)cc34)[C@@H]2C[C@@H]1N(C)C(=O)NC1CCCCC1 | -8.5 | ? | 50.8 | 2.0% | -0.3 | -4.5 |
| O=C(COc1ccccc1Cl)N1CCc2ccccc2C1 | -5.0 | 1.6 | 26.3 | 1.2% | 1.7 | -4.4 |
| COc1ccc(C(C(=O)NC2CCCCC2)N(C(=O)CCl)c2ccccc2Cl)cc1 (configuration not stated) | -2.7 | 14.2 | 28.5 | -1.3% | -0.2 | -4.6 |
| Cc1c(C(=O)OC(C)C(C)C[N+](C)(C)C)oc2ccccc12 (configuration not stated) | 7.1 | 4.7 | -3.4 | -1.5% | 1.4 | -2.7 |

Some of the entries so far, with each value named:
COC(=O)CCC[C@H]1CC2(C[C@H](CCCO[Si](C)(C)C(C)(C)C)N1C(=O)OC(C)(C)C)OCCO2
  D2 potentiator: -6.3
  Six1-Eya2 blk: 4.5
  TRPML1 blocker: -4.5
  PINK1 modulator: ?
  TRPML1 ag: -0.2
  D2 agonist: -0.3

Cc1cccc(NC(=O)CNC(=O)c2ccco2)n1
  D2 potentiator: -18.8
  Six1-Eya2 blk: 5.7
  TRPML1 blocker: -4.3
  PINK1 modulator: 2.2%
  TRPML1 ag: -0.7
  D2 agonist: -4.7

N#C/C(=C\c1ccc[nH]1)C(=O)NC1CC1
  D2 potentiator: -5.8
  Six1-Eya2 blk: 6.0
  TRPML1 blocker: 8.9
  PINK1 modulator: /
  TRPML1 ag: -0.3
  D2 agonist: -0.1

c1ccc2nc3c(cc2c1)CCCCCC3
  D2 potentiator: -8.6
  Six1-Eya2 blk: 7.4
  TRPML1 blocker: 4.3
  PINK1 modulator: 1.8%
  TRPML1 ag: -0.9
  D2 agonist: -2.8
